Source: PubChem BioAssay
HPGD block: blocks human HPGD enzyme activity; P15428; purified HPGD, NADH fluorescence kinetic, PGE2 substrate; Potency, µM, without a hit: at the highest dose activity change, negative = inhibition, hits mostly inhibitors; hit rate 4.3% among 150,000; AID 894; active = well fitted inhibition curve with a large enough effect (not every such curve was filed as active); inconclusive = small, poorly fitted or top-dose-only effect, or another doubt; inactive = no such curve, though single readings can be large or run the other way;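 note: top concentration of the series not given in the record; plate controls included wells without enzyme; inactives centre near -10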
Target sequence (P15428 whole entry, looked up): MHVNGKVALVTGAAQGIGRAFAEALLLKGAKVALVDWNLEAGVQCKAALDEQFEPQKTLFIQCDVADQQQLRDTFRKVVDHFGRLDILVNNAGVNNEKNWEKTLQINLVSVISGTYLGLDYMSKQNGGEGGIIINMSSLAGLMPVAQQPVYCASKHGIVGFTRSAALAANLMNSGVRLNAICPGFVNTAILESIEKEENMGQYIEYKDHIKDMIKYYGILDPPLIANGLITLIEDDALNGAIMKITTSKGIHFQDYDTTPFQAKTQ
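20 nM HPGD preincubated 15 min at room temperature with compound in 50 mM Tris-HCl pH 8, 0.01% Tween 20. Started with 1 mM NAD+ and 30 uM prostaglandin E2; NADH fluorescence (360/450 nm) read 5 times over 30-s intervals, last minus first.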
Starred values were filed as active, the others as inactive; ? = inconclusive; & = joins results of further samples. % is set by controls: 0 for no effect and ±100 for the full control effect; potency is the fitted concentration of half-maximal effect. Some of the compounds tested; the hit share may differ from the screen's.

SMILES | HPGD block
CCn1cc(C(=O)O)c(=O)c2cnc(N3CCN(C(=O)Nc4cccc5ccccc45)CC3)nc21 | ?
COCCN(CCOC)S(=O)(=O)c1ccc(C(=O)NCCCN2CCOCC2)cc1 | -11%
COc1ccc(C(C)=O)cc1CN(C)C | -4%
C/C(N)=C(/C#N)C(=O)COC(=O)c1ccc(C)c(S(=O)(=O)N2CCCCC2)c1 | 13µM*
COc1ccc(C(CC(=O)c2ccccc2)C2CCCCC2=O)cc1 (stereo not drawn) | -6%
Cc1cccc(NC(=O)c2cc(NC(=O)c3ccco3)ccc2N2CCCCC2)c1 | ?
COc1ccc(NC(=O)COC(=O)c2ccc(NS(=O)(=O)/C=C/c3ccccc3)cc2)cc1 | -14%
Cc1cc(C)cc(Nc2ccc(C(=O)O)cc2N)c1 | ?
CC1CCN(S(=O)(=O)c2cnc(Cl)c(Br)c2)CC1 | -15%
COc1ccc(-c2nnc(SCC(=O)N3CCOCC3)o2)cc1OC | -9%
O=C(Nc1nc2ccccc2s1)C1=NN(c2ccccc2)C(=O)CC1 | -1%
O=C(NC1=NCCS1)c1cc(-c2ccc(-c3ccccc3)cc2)nc2ccccc12 | ?
Fc1ccccc1CSc1nnnn1-c1ccc2c(c1)OCO2 | -16%
Cc1ccc(-c2noc(CCC(=O)NC3CCCc4ccccc43)n2)cc1 (stereo not drawn) | -6%
COc1ccccc1CNC(=O)CCN1C(=O)COc2ccc(C)cc21 | -6%
Cc1ccc(-n2c(SCC(N)=O)nc(O)cc2=O)cc1 | -8%
CC1CCCCN1Cc1nc2c(c(=O)n(C)c(=O)n2C)n1CCc1ccccc1 (stereo not drawn) | -1%
Nc1ccc(S(=O)(=O)Nc2ccc(Cl)nn2)cc1 | -26%&-5%
CC(=O)Nc1ccc(OCC(O)CN2CCN(c3ccc(Cl)cc3)CC2)cc1 (stereo not drawn) | -4%
Cc1ccc(C(C)C)c(OCCCN(C)Cc2ccccc2)c1 | -13%
CC(C)Oc1nnnn1-c1ccccc1 | -13%
O=S(=O)(NCc1ccncc1)c1ccc(Br)s1 | -12%
COC(=O)[C@@]1(Cc2ccccc2)[C@H]2c3cc(C(=O)N(C)C)n(Cc4ccc(OC)c(OC)c4)c3C[C@H]2CN1C(=O)c1ccccc1 | -6%
Cc1c(Cl)cccc1NC(=O)NC1CCCCC1 | -1%
CCOC(=O)c1cc2sccc2n1CC(=O)Nc1ccc2c(c1)OCCO2 | -17%
COCCNC(=O)[C@H](C)/C=C/C(NC(=O)OCc1ccccc1)c1ccc(C(=O)OC)cc1 (stereo partly drawn) | -13%
O=C(NCCc1c[nH]c2ccccc12)C(=O)NCC1OCCN1S(=O)(=O)c1ccc(F)cc1 (stereo not drawn) | 2%
CSc1nnc2n(C3CCCCC3)c(=O)c3c4c(sc3n12)CCCC4 | 0%
CCCc1n[nH]c2c1C(=O)C(C(=O)OC)C(C)(C)C2 (stereo not drawn) | -17%
COc1ccc(C(=O)Oc2coc(CSc3nnc(NC(=O)c4cccs4)s3)cc2=O)cc1 | -30%
COc1cccc(-c2cc(C(=O)Nc3cc(C)on3)no2)c1 | -18%
COC(=O)c1ccc(-n2c(C)cc(C(=O)COC(=O)CNS(=O)(=O)c3ccc(C)cc3)c2C)cc1 | -9%
CSC1=NCCN1C(=O)c1ccc(S(=O)(=O)N2CCCCC2)cc1 | -8%
Cc1cccc(NC(=O)C(=O)NCCCc2ccccc2)c1 | -10%
COc1ccc2nc(Nc3nc4cc5c(cc4s3)OCCO5)sc2c1 | ?
O=c1[nH]c2c(n(C3CCCCC3)c1=O)CCC2 | -5%
CC(C)n1c(-c2cccs2)nc2ccccc21 | ?
COC(=O)c1[nH]c2cc(OC)ccc2c1NC(=O)CCN1CCCCC1 | -8%
CC(C)(C)SCCNS(=O)(=O)c1ccc2ccccc2c1 | -21%
O=C(NC(=S)Nn1cnc2c(cnn2-c2ccccc2)c1=O)c1ccc(Cl)cc1 | -30%
Cc1ccc(C(C(=O)NCc2ccccc2)N(C(=O)c2csnn2)c2cccc3ccccc23)o1 (stereo not drawn) | -12%
C=C(Cl)COc1cc(C)cc2oc(=O)cc(CC)c12 | ?
O=C(NCc1ccncc1)C1CCN(S(=O)(=O)Cc2ccccc2)CC1 | 2%
C=CCn1c(SCC(=O)Nc2cc(C)on2)nc2sc(CC)cc2c1=O | 2%
CCOC(=S)SCC(=O)N1CCc2cc(OC)ccc2C1C1C(=O)CCCC1=O (stereo not drawn) | -5%
COc1ccc(C(=O)C2C(c3ccc(-c4ccccc4[N+](=O)[O-])o3)NC(=O)NC2(O)C(F)(F)F)cc1 (stereo not drawn) | -11%
CCCCC(=O)Nc1nc2c(OC)ccc(OC)c2s1 | -7%
CCOc1ccc(C(=O)NC(=S)Nc2ccccc2N2CCC(C)CC2)cc1[N+](=O)[O-] | -18%
O=C(CSc1ccccn1)N/N=C/C=C/c1ccccc1 | 20µM*
CCOC(=O)c1nnn(-c2nonc2N)c1CNc1ccc(C)c(Br)c1 | -11%

Additional results.
SMILES | HPGD block
COC(=O)c1cc(NS(=O)(=O)c2ccc(N3CCOCC3)c([N+](=O)[O-])c2)cc(C(=O)OC)c1 | -9%
C=CCOC(=O)N[C@H](/C(C(=O)OC)=C(\C)NCc1ccccc1)c1cccc(F)c1 | -19%
CC(=O)c1ccc(OCC(O)CN2C(C)(C)CC(O)CC2(C)C)cc1 (stereo not drawn) | -4%
O=C(NC(=S)NC1CCSC1=O)c1ccccc1 (stereo not drawn) | -7%
N/C(=N\OC(=O)COc1ccccc1Cl)c1ccc(Cl)cc1 | -15%
Cc1cc(NC(=O)CCCN2C(=O)c3cccnc3C2=O)no1 | -12%
Cc1ccc2c(CC(=O)Nc3c(C)n(C)n(-c4ccccc4)c3=O)coc2c1 | -6%
Cc1ccc2cccc(SCC(=O)NCC#N)c2n1 | ?
CCc1ccc(NC(=O)C(=O)N/N=C(\C)CC(=O)Nc2ccccn2)cc1 | -17%
COc1ccc2[nH]c3c(c2c1)CCn1c-3nc2ccccc2c1=O | ?
CC1c2nc3ccccc3n2C(CC(=O)NCc2ccccn2)C(=O)N1Cc1ccccc1 (stereo not drawn) | 5%
C/C(=N\NC(=O)c1ccc(Br)cc1)c1ccccc1 | -11%
O=C(Oc1ccc(N2C(=O)CCC2=O)cc1)c1ccccc1 | 2%
Cc1nn(Cc2ccc(Cl)cc2)c(=O)n1N(C)c1ncc(C(F)(F)F)cc1Cl | -8%
Cn1cccc1C(=O)N1CCC[C@@]2(CCN(c3ncccn3)C2)C1 | -11%
O=C(COc1ccc(Cl)cc1)NCc1nnc(SCC(=O)NC2CCCCC2)o1 | -16%
CCCCSc1nc2c(c(=O)[nH]1)CCC2 | 28µM*
Cc1cc(C)nc(N2CCCC(C(=O)NCc3cccc(C(F)(F)F)c3)C2)n1 (stereo not drawn) | -5%
Cn1nc(C(=O)Nc2cccnc2)c2ccccc2c1=O | -4%
CCn1c(COc2c(C)cccc2C)nnc1SCC(=O)N1CCN(c2ccccc2)CC1 | 3%
COc1ccc(N(CCCN2C(=O)c3cccc4cccc(c34)C2=O)C(=O)c2cccs2)cc1 | -17%
Cc1ccc(N(C)S(=O)(=O)c2ccc(C)cc2)cc1 | -16%
O=C(Nc1c(C(=O)N2CCCCC2)cnn1-c1ccccc1)c1ccco1 | -13%
CCc1cc2c(=O)c(-c3nc4ccccc4n3C)c(COCC(=O)O)oc2cc1OC(=O)C(C)(C)C | -5%
Cc1cc(-c2ccccc2)n2ncc(-c3ccccc3)c2n1 | -9%

Four compounds from above, sorted by the number in HPGD block, largest number first.
SMILES | HPGD block
Cc1cc(C)nc(N2CCCC(C(=O)NCc3cccc(C(F)(F)F)c3)C2)n1 (stereo not drawn) | -5%
C/C(=N\NC(=O)c1ccc(Br)cc1)c1ccccc1 | -11%
Cc1cc(NC(=O)CCCN2C(=O)c3cccnc3C2=O)no1 | -12%
N/C(=N\OC(=O)COc1ccccc1Cl)c1ccc(Cl)cc1 | -15%

Following part
SMILES | HPGD block
Cc1cccc(Cn2c(NCC(C)O)nc3c2c(=O)n(C)c(=O)n3C)c1 (stereo not drawn) | 2%
Cc1cc(Cl)ccc1NC(=S)NCc1ccc(Cl)cc1 | -16%
C/C(=N\Nc1cc(Cl)nc(C)n1)c1ccc(Cl)c(Cl)c1 | -28%
O=S(=O)(NCc1cccnc1)c1ccc(Cl)nc1 | -3%
Cc1cc(C)nc(SCC(=O)Nc2ccc(S(=O)(=O)NC(C)(C)C)cc2)n1 | -16%
COc1ccccc1C1SCCN1S(=O)(=O)c1cccc(C(F)(F)F)c1 (stereo not drawn) | -21%
CC12CCC(C(=O)N(NC(=O)c3ccccc3Cl)C1=O)C2(C)C (stereo not drawn) | -1%
CCC1Oc2ccc(C)cc2N(CC(=O)NCCCN2CCN(Cc3ccccc3)CC2)C1=O (stereo not drawn) | -3%
Cc1nc(NC2=NCN(CCc3ccccc3)CN2)nc2ccccc12 | -9%
CCOC(=O)c1sc2ccccc2c1NC(=O)c1coc2ccccc2c1=O | -14%
CCC1=C(OC(=O)N(CC)CC)N2C(=O)OC(=NCc3ccccc3)[C@]2(C)[C@H]2C1=CC[C@H]1C(=O)N(CC(=O)OC)C(=O)[C@H]12 | -8%
COC(=O)c1c(C(=O)OC)c2n(c1C)Cc1ccccc1C2 | -10%
CCN1CCN(C(=S)Nc2ccc(Cl)cc2Cl)CC1 | -14%
CCN(CC)CCn1c(NCc2cccc(OC)c2)nc2ccccc21 | -9%
CO[C@H]1/C=C/O[C@@]2(C)Oc3c(C)c(O)c4c(O)c(c5c(c4c3C2=O)NC2(CCN(CC(C)C)CC2)N=5)=NC(=O)/C(C)=C\C=C\[C@H](C)[C@H](O)[C@@H](C)[C@@H](O)[C@@H](C)[C@H](OC(C)=O)[C@@H]1C | -7%
COc1ccc(NS(=O)(=O)c2ccc(N3CCOCC3)c(NC(=O)c3ccc(OC)cc3)c2)cc1 | -6%
O=C(COc1ccc(Br)cc1)N1CCC(c2ccccc2)C1 (stereo not drawn) | -13%
Cc1c(NC(=O)C(C#N)=C2CCCCC2)c(=O)n(-c2ccccc2)n1C | -2%
Cc1ccc(S(=O)(=O)n2cc(-c3ccccc3)c(N)n2)cc1 | -22%
COc1cc(OC)c(-n2c(C)cc(C=O)c2C)cc1Cl | 3.5µM*
COc1cc(C(=O)NCc2ccccc2)cc(Br)c1OC | 22µM*
CCC1Oc2ccc(C)cc2N(CC(=O)NCCCN2CCCCC2CC)C1=O (stereo not drawn) | -6%
c1ccc(OCc2nc(-c3cccs3)no2)cc1 | -21%
COc1ccc(OC)c(S(=O)(=O)NC2CCN(Cc3ccccc3)CC2)c1 | -8%
CC(C)Oc1ccc(C2CC(=O)N(c3ccccc3)C2=O)cc1 (stereo not drawn) | 0%

3 records drawn at random from those above:
SMILES | HPGD block
c1ccc(OCc2nc(-c3cccs3)no2)cc1 | -21%
C=CCOC(=O)N[C@H](/C(C(=O)OC)=C(\C)NCc1ccccc1)c1cccc(F)c1 | -19%
Cc1cc(C)nc(SCC(=O)Nc2ccc(S(=O)(=O)NC(C)(C)C)cc2)n1 | -16%

More records
SMILES | HPGD block
COc1ccc(C(c2nnnn2C2CCCC2)N2CCc3ccccc3C2)cc1OC (stereo not drawn) | -7%
Cc1ccc(NC(=O)c2ccccc2O)cc1 | -16%
O=c1[nH]c2ccccc2n1CCCN1CCN(C(c2ccccc2)c2ccccc2)CC1 | -10%&8%
CCCNc1nc2c(c(=O)[nH]c(=O)n2C)n1CCC(C)C | -7%
CC(C)Cn1c(N)c(C(=O)CSc2ccccc2)c(=O)n(C)c1=O | -14%
Cc1noc(C)c1C(=O)N1CCC2(CC1)CCN(c1ccccn1)CC2 | ?
CC(C)COC(=O)c1cc(-c2ccc(/C=N/n3cnnc3)o2)ccc1Cl | -12%
COc1ccc(CNC(=O)c2ccc(N3CCCC3=O)cc2)cc1 | -3%
CCCNC(=O)COC(=O)c1[nH]c(C)c(C(=O)OCC)c1C | -7%
COc1cccc2cc(C(=O)N3CCN(C(=O)c4ccco4)CC3)c(=O)oc12 | -14%
COc1ccc(CN(C)C(c2ccccc2)c2nnnn2-c2ccccc2C)c(OC)c1C (stereo not drawn) | -5%
C/C(=N\S(=O)(=O)c1ccc(C)cc1)Nc1cc(C(C)C)c(O)cc1C | -6%
Cc1ccc(NC(=O)c2sc3nc[nH]c(=O)c3c2C)c(C)c1 | -26%
CCOc1c2ccc(C(=O)NCc3ccc(OC(F)(F)F)cc3)cc2nn1C | ?
Cc1cc(NC(=O)CN2CCN(c3ccccc3O)CC2)no1 | 0%
Cc1ccc(SCc2noc(C(=O)NC(C)C)c2C(=O)O)cc1C | -14%
CCOC(=O)c1c(NC(=O)CSc2nnc(-c3cccnc3)o2)sc(C(C)=O)c1C | ?
CCCCCc1nnc(NC(=O)Cn2cnc3ccccc3c2=O)s1 | -5%
O=C(CSc1nnc(-c2cccnc2)n1-c1ccccc1)NCc1ccc2c(c1)OCO2 | -6%
CCc1cc(N2CCOCC2)cc2c1[nH]c1ccccc12 | ?
CS(=O)(=O)N1CCN(c2ccccc2NC(=O)C(c2ccccc2)c2ccccc2)CC1 | -9%
Clc1ccc(-c2nnc(-c3ccccc3)c(N3CCSCC3)n2)cc1 | -7%
CCOC(=O)c1[nH]cnc1C(=O)NC(C)C | 6%
